Tb PGK inh – inhibitors of T. brucei phosphoglycerate kinase; hit rate 0.043% among 380,000; P07378; PGK/GAPDH coupled, Kinase-Glo luminescence, 60 min; Potency, µM (highest dose often 57.5 µM), for the others: top-dose activity change, negative = inhibition, hits mostly inhibitors; note: potency is the fitted concentration of half-maximal effect; nearly all actives have a fitted effect of over 60% in size
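Recombinant glycosomal PGK reaction used 1,3-bisphosphoglycerate generated in-well by GAPDH (100nM final) in 100mM TEA pH 7.6, 5mM MgCl2, 0.01% Tween-20. After 60 minutes at room temperature, ATP was read by Kinase-Glo Plus luminescence end-point.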
GLS inhibitor – glutaminase GLS (human) inhibition. GLS enzymatic activity, qHTS titration. Potency, µM (series often up to 45.5 µM), for the others: top-dose activity change, negative = inhibition, hits mostly inhibitors. hit rate 0.21% among 410,000. O94925; note: potency is the fitted concentration of half-maximal effect
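hKGA in 45 mM KH2PO4 pH 8.2, 0.02% Tween-20 with pin-transferred compounds; 1 mM L-glutamine (stock) plus glutamate oxidase/HRP/Amplex Red coupling added. Fluorescence read initially and after 30 min at RT.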
PI4K2A block – PI4K2A (human) kinase inhibition; purified PI4K2A, ADP-Glo luminescence, 1 h; active compounds read low; activity change, negative = inhibition, % at 76.9 µM; hit rate 0.13% among 420,000; in the data active = activity change below about -50%; inconclusive = mostly about -30% to -49%;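 note: -100% = wells without enzyme as full effect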
Target sequence (Q9BTU6 whole entry, looked up): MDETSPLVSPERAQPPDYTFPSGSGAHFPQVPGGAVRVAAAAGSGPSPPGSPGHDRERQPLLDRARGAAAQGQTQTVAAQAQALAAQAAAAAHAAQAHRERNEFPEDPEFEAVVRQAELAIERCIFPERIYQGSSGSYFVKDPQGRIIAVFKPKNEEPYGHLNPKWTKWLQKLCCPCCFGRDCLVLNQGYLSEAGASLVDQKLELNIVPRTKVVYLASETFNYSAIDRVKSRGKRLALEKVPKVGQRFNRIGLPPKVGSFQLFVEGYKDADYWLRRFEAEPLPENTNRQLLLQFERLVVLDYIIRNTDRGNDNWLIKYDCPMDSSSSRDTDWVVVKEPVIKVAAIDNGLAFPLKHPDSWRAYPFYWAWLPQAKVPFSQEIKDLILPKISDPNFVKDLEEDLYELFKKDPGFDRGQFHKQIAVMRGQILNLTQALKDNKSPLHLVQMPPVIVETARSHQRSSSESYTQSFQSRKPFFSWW
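PI4K2A activity was measured by ADP-Glo luminescence: enzyme (4 ug/mL stock) and phosphatidylinositol (1.2 mM stock) in Tris pH 7.5/MgCl2/EGTA/Triton X-100 buffer were reacted with ATP (300 microM stock) for one hour at ambient temperature.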
Pol eta inh – blocks human DNA polymerase eta activity; recombinant Pol eta, fluorescent DNA replication assay; Potency, µM (titrated, usually from 114 µM), for inactives: at the highest dose activity change, negative = inhibition, most hits filed as inhibitors; hit rate 1.2% among 390,000; AID 588591; note: potency is the fitted concentration of half-maximal effect
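Pol eta at 10 nM preincubated with compounds 15 min at room temperature; reaction started with fluorescent substrate (50 nM final) and read kinetically at 0 and 10 min.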
G9a inh – G9a (human) methyltransferase inhibition. Potency, µM (doses to about 102 µM), without a hit: top-dose activity, negative = inhibition, hits mostly inhibitors. G9a H3K9 monomethylation, AlphaScreen, 2 h. hit rate 8.8% among 350,000. AID 504332; note: potency is the fitted concentration of half-maximal effect; nearly all actives have a fitted effect of over 75% in size
Target sequence (Q96KQ7 913-1193 limits assumed): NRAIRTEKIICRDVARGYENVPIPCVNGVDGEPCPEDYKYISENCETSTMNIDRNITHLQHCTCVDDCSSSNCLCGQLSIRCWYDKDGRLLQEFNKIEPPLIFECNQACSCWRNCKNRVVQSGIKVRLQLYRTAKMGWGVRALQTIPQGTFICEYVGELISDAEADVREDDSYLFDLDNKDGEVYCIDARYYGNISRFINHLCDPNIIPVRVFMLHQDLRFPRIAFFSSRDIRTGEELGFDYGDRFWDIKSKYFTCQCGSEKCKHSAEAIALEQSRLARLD
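Step 1: enzyme (final 20 nM) with compound, 15 min RT. Step 2: substrate peptide 500 nM and SAM 20 uM, 2 h RT. Step 3: anti-H3K9me1 antibody and AlphaScreen beads, 10 min, then plate read.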
Pin1 inh – blocks the human prolyl isomerase Pin1. Pin1 FP peptide displacement, HiFluor488, 10 min. Potency, µM (top dose mostly 115 µM), for the others: at the highest dose activity, negative = inhibition, actives largely listed as inhibitors. hit rate 0.009% among 390,000. AID 504891; active = well fitted inhibition curve with a large enough effect in the polarisation, with a control signal flat, not every such curve was filed as active; inconclusive = small, poorly fitted or top-dose-only effect, or effect the other way, or a change in a side signal; inactive = no such curve, though single readings can be large or run the other way; the % refers to the polarisation; note: potency is the fitted concentration of half-maximal effect
Target sequence (Q13526 whole entry, looked up): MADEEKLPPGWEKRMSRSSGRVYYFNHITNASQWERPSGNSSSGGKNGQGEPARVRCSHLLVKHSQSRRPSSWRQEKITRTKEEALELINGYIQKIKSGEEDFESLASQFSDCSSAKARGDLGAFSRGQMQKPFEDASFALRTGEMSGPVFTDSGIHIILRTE
* = called active by the depositor; i = inactive; u = inconclusive; x = not tested or not shown; [ ] = another dose, or the depositor's remark. Unless noted, calls come from the whole dose curve; as a rule, active = well fitted curve in the direction sought with a large enough effect; inconclusive = small, poorly fitted or top-dose-only effect, or another doubt; inactive = no such curve, though single readings can be large; an effect the other way counts as inactive or inconclusive. Unless noted, % is set by controls: 0 for no effect and ±100 for the full control effect. The list is partial; count on the stated rates, not on these rows.

cpd	structure	PI4K2A block	Pin1 inh	GLS inhibitor	G9a inh	Pol eta inh	Tb PGK inh
1	Oc1ccc2ccccc2c1C=Nc1cc(C(F)(F)F)ccc1N1CCCC1	-11	u	2%	7.1µM*	-12%	-6%
2	CN(CCCNC(=O)c1ccc(/C=N/O)nc1)CCCN(C)Cc1ccccc1	-1	1%	17%	8%[0.501 µM]	3%	i
3	CCOC(=O)C1CCCN(Cc2cccs2)C1 (stereo not given)	10	-1%	2%	u	-5%	-3%
4	CCCCN(C)CCOc1ccccc1OCC	5	-12%	7%	3.5µM*	-21%	4%
5	O=[N+]([O-])c1ccc(C=NN2CCCCCC2)cc1	16	12%	-3%	x	-11%	-8%
6	Cc1ccc(S(=O)(=O)N2CCOCC2)cc1NC(=O)CNCc1ccccc1Cl	-3	2%	-1%	18µM*	-15%	-6%
7	COC(=O)c1ccc(OC(=O)c2ccccn2)cc1	-7	-2%	16%	-7%[2.33 µM]	9%	-3%
8	COc1cc(CN2CCN(Cc3ccc(C)cc3)CC2)c([N+](=O)[O-])cc1OC	-1	-2%	0%	4.5µM*	-11%	-10%
9	CC(NC(=O)CN(C)Cc1cccc(Cl)c1)c1ccccc1 (stereo not given)	-3	6%	-10%	25µM*	-25%	-3%
10	COc1ccccc1CNC(=O)COC(=O)c1ccccn1	3	0%	5%	u	-14%	-3%
11	COc1ccc(/C=N/NC(=O)CN2CCSCC2)c(OC)c1	-1	-2%	6%	7.9µM*	-12%	-2%
12	COc1cc(OC)cc(C(=O)N2CCN(Cc3ccc4c(c3)OCO4)CC2)c1	8	4%	1%	11µM*	5%	-9%
13	CC1CCN(CCCCOc2ccc(Cl)cc2)CC1	0	-10%	2%	-7%	-8%	-5%
14	Clc1ccc(OCCn2ccnc2)c(Br)c1	9	-13%	-6%	13µM*	5%	-4%
15	COc1ccc(OC)c(Nc2nc(-c3sc(NC(=O)C(C)(C)C)nc3C)cs2)c1	-3	13%	11%	u	-20%	-1%
16	COc1ccccc1N1CCN(CC(=O)Nc2ccc3c(c2)OCCO3)CC1	6	-2%	8%	7.1µM*	-2%	4%
17	CN(Cc1ccccc1)C(=C(Cl)Cl)C(=C1NCCN1)[N+](=O)[O-]	-1	-9%	-5%	25µM*	-18%	-9%
18	CCN(c1ccccc1)S(=O)(=O)c1ccc(OC)c(NC(=O)CN(C)C)c1	-1	-5%	1%	13µM*	-1%	-2%
19	O=C1CC(C(=O)O)S/C(=N\NC(=O)c2ccc(F)cc2)N1 (stereo not given)	7	-2%	27%	1.4µM*	-16%	4%
20	COc1ccc(S(=O)(=O)N2CCN(Cc3cc(OC)c(OC)cc3OC)CC2)cc1	3	9%	-5%	50µM*	0%	-4%
21	CCC(C)c1ccccc1OCCn1ccnc1 (stereo not given)	-5	-6%	1%	16µM*	-16%	i
22	COc1cc(-c2nc3ccccn3c2/N=C/c2cc(OC)c(O)cc2Cl)ccc1O	2	u	-10%	22µM*	u	0%
23	Nn1c(SCC(=O)Nc2ccc3c(c2)OCCO3)nnc1-c1ccccn1	0	-6%	1%	u	-2%	-11%
24	Cc1ccc(OCCCN2C(=O)C(=O)c3cccc(C)c32)cc1	28	-7%	3%	u	u	-7%
25	CCCS(=O)(=O)N1CCN(Cc2ccccc2[N+](=O)[O-])CC1	-2	-11%	-3%	25µM*	-5%	0%
26	c1ccc2c(c1)ccc1[nH]c3c(c12)CCCC3	3	-11%	6%	x	-18%	-2%
27	CCOC(=O)N1CCN(Cc2c(F)cccc2Cl)CC1	5	-10%	2%	8.9µM*	-11%	23%
28	CC(=O)c1ccc(OCC(O)CN2CCN(S(=O)(=O)c3c(C)cc(C)cc3C)CC2)cc1 (stereo not given)	1	0%	6%	u	-22%	5%
29	COc1ccccc1OCc1nnc(SCCN2CCOCC2)o1	4	-1%	-1%	6.3µM*	-6%	i
30	CCOc1ccc(/C(O)=C/C(=O)C(=O)Nc2ccc(S(=O)(=O)NC(C)=O)cc2)cc1	-11	35%[activator]	20%	u	-21%	-3%

Molecules shown so far containing fluorine:
cpd	structure	PI4K2A block	Pin1 inh	GLS inhibitor	G9a inh	Pol eta inh	Tb PGK inh
1	Oc1ccc2ccccc2c1C=Nc1cc(C(F)(F)F)ccc1N1CCCC1	-11	u	2%	7.1µM*	-12%	-6%
19	O=C1CC(C(=O)O)S/C(=N\NC(=O)c2ccc(F)cc2)N1 (stereo not given)	7	-2%	27%	1.4µM*	-16%	4%
27	CCOC(=O)N1CCN(Cc2c(F)cccc2Cl)CC1	5	-10%	2%	8.9µM*	-11%	23%

2 records drawn at random from those above:
cpd	structure	PI4K2A block	Pin1 inh	GLS inhibitor	G9a inh	Pol eta inh	Tb PGK inh
3	CCOC(=O)C1CCCN(Cc2cccs2)C1 (stereo not given)	10	-1%	2%	u	-5%	-3%
5	O=[N+]([O-])c1ccc(C=NN2CCCCCC2)cc1	16	12%	-3%	x	-11%	-8%

(list continues)
cpd	structure	PI4K2A block	Pin1 inh	GLS inhibitor	G9a inh	Pol eta inh	Tb PGK inh
31	COc1ccc2nc(N(CCN(C)C)C(=O)c3ccc(C(=O)c4ccccc4)cc3)sc2c1	-9	0%	17%	35µM*	-2%	5%
32	CCOCCCNC(=O)C1CCN(Cc2cccc(OCc3ccccc3)c2)CC1	2	-8%	-17%	35µM*	-21%	i
33	O=[N+]([O-])c1nn(-c2ccccc2)[n+]([O-])c1N1CCN(c2ccccc2F)CC1	1	-10%	9%	23%[59 µM]	-13%	-10%
34	CCOC(=O)C1CCN(CC(C)(C)NS(=O)(=O)c2ccc(C)cc2)CC1	-4	2%	14%	14µM*	-6%	0%
35	CC1CN(CCOc2ccc(Cl)c(Cl)c2)CC(C)O1 (stereo not given)	-4	1%	-2%	8.9µM*	-16%	-4%
36	CS(=O)(=O)c1ccccc1-c1nnc(NC(=O)C2=COCCO2)o1	-2	4%	2%	25µM*	-20%	-11%
37	O=C(NNC(=O)c1ccc(O)cc1O)c1ccc(Cl)cc1	8	-3%	30%[activator]	-25%	1%	-4%
38	N#Cc1ccc(CSc2nnc(-c3ccccn3)n2-c2ccccc2)cc1	3	0%	-1%	14%[12.7 µM]	-6%	1%
39	CCOC(=O)C1CCCN(Cc2c(F)cccc2Cl)C1 (stereo not given)	-4	-10%	1%	u	-3%	i
40	Cc1ccc(-c2cnc(NCc3c(F)cccc3Cl)n2C)cc1	-1	-2%	3%	7.1µM*	-17%	i
41	CN(C)c1ccc(/C=N/n2c(COc3ccccc3)n[nH]c2=S)cc1	3	3%	20%	2.8µM*	3%	-5%
42	CCOC(=O)C1CCN(Cc2oc(CO)cc(=O)c2O)CC1	3	2%	-15%	11µM*	-19%	-1%
43	O=C(NC1CCCCC1)c1cccnc1C(=O)O	0	-9%	-1%	x	-11%	-9%
44	Cc1cc(OCCN2CCCC2)ccc1C(C)C	9	-16%	8%	8.9µM*	-11%	5%
45	CCC1CCCCN1C/C=C/c1ccccc1[N+](=O)[O-] (stereo not given)	-1	-11%	-2%	8.9µM*	-5%	-6%
46	O=C(c1cccnc1)N1CCN(Cc2ccc3ccccc3c2)CC1	-5	-3%	-4%	u	-7%	1%
47	Cc1cccc(-c2noc(-c3ccccc3OCC(=O)Nc3ccccc3[N+](=O)[O-])n2)c1	2	4%	1%	u	-10%	3%
48	Cn1cccc1-c1nc2ccc([N+](=O)[O-])cc2[nH]1	-7	6%	-10%	8.9µM*	2%	-6%
49	CC(=O)c1cccc(NC(=O)CSc2ccc(-c3ccccn3)nn2)c1	3	0%	2%	3%	-1%	-1%
50	N#Cc1ccccc1S(=O)(=O)N1CCN(CC(O)CN2CCOCC2)CC1 (stereo not given)	2	-17%	3%	u	-21%	-6%
51	CC(C)c1ccc2c(c1)NC(c1ccncc1)=NC(c1cccs1)=N2	0	-8%	-1%	u	x	x
52	CCc1ccc(CNc2ncc(-c3cccc(OC)c3)n2C)cc1	1	5%	8%	4µM*	x	x
53	COc1cccc(NC(=S)NCc2ccc3c(c2)cc(C)n3C)c1	7	-17%	-4%	35µM*	-23%	-3%
54	CSc1ccc(CNc2ccc(C)cc2)cc1	3	-4%	-2%	x	-7%	x
55	COc1ccc(C(=O)N2CCC(N3CCN(c4ccccc4)CC3)CC2)cc1OC	7	4%	31%	7.9µM*	14%	-6%
56	O=C(CN1CCN(c2ncccn2)CC1)Nc1ccccc1-n1cccc1	-4	-4%	-6%	4.5µM*	-1%	-10%
57	Nc1nc(CN2CCN(c3cccc(Cl)c3)CC2)nc(N2CCCc3ccccc32)n1	-4	11%	2%	-12%[12.7 µM]	-25%	2%
58	Clc1ccc(SCCCCN2CCNCC2)cc1	5	-1%	12%	u	-10%	-5%
59	Cc1ccccc1Cn1c(C(=O)OC(C)C)cc2c1ccn2C	4	-1%	1%	18%[0.501 µM]	-22%	2%
60	CCN1CCN(CC(=O)Nc2ccc(C)c(Br)c2)CC1	0	-9%	-6%	45µM*	-20%	i

Another view of 4 compounds above:
| item | PI4K2A block | Pin1 inh | GLS inhibitor | G9a inh | Pol eta inh | Tb PGK inh | SMILES |
| --- | --- | --- | --- | --- | --- | --- | --- |
| 41 | 3 | 3% | 20% | 2.8µM* | 3% | -5% | CN(C)c1ccc(/C=N/n2c(COc3ccccc3)n[nH]c2=S)cc1 |
| 42 | 3 | 2% | -15% | 11µM* | -19% | -1% | CCOC(=O)C1CCN(Cc2oc(CO)cc(=O)c2O)CC1 |
| 43 | 0 | -9% | -1% | x | -11% | -9% | O=C(NC1CCCCC1)c1cccnc1C(=O)O |
| 44 | 9 | -16% | 8% | 8.9µM* | -11% | 5% | Cc1cc(OCCN2CCCC2)ccc1C(C)C |

Going on with the list.
cpd	structure	PI4K2A block	Pin1 inh	GLS inhibitor	G9a inh	Pol eta inh	Tb PGK inh
61	Fc1ccc(CN2CCCCCCC2)cc1F	-1	1%	-2%	25µM*	0%	5%
62	COc1cccc(CC2(CO)CCCN(Cc3ccc(OC(F)F)cc3)C2)c1 (stereo not given)	1	19%	5%	x	-16%	-2%
63	COc1ccc(CNc2ccc(C)c(C)c2)c(OC)c1OC	4	0%	2%	35µM*	-11%	4%
64	CN(C)CCC1Sc2ccccc2Oc2ccccc21 (stereo not given)	-3	-1%	-6%	10µM*	-7%	-3%
65	COC(=O)CCNCCSc1nnc(-c2ccco2)n1Cc1ccccc1	6	-7%	-5%	u	-16%	i
66	O=S(=O)(c1ccc(Cl)c(C(F)(F)F)c1)N1CCN(CC(O)COCC2CCCO2)CC1 (stereo not given)	9	3%	11%	4.5µM*	-8%	6%
67	Cc1ccc(OCCOc2cccc3ccc(C)nc23)c([N+](=O)[O-])c1	-1	3%	-4%	-130%[59 µM]	u	-11%
68	O=C(CN1CCCC1)Nc1c2c(nc3ccccc13)N(Cc1ccccc1)CC2	-4	-10%	16%	u	4%	x
69	CC(C)n1cnc2cc(NCc3ccccn3)ccc21	-5	3%	-1%	u	-16%	0%

Screening results as filed in PubChem.
